From PubChem
PMP22 txn prim – modulators of PMP22 gene transcription in S16 Schwann cells. S16 Pmp22-F2sN Schwann cells (luciferase reporters placed in the Pmp22 gene), FLuc/NLuc coincidence luminescence, 24 h. Potency, µM (top dose mostly 57.5 µM), inactives show at the top dose activity change, negative = inhibition, most hits filed as inhibitors. hit rate 2% among 43,000; active = clear falling dose curves in both reporters; inconclusive = both reporters move, but less clearly or upward; inactive = either reporter flat; the % is the NLuc reporter signal; also: % is scaled to controls: 0 for no effect and ±100 for the full control effect; some results filed as inactive show a strong effect at the top dose
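Rat S16 Pmp22-F2sN cells, 500-1,000/well in phenol red-free DMEM + 10% FBS, compound-treated 24 h (37C, 5% CO2). Luminescence: FLuc read, Stop&Glo added, NLuc read.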
HTT promoter inh – HTT promoter inhibition; HEK293 HTT promoter firefly luciferase reporter (activity 0% = vehicle and -100% = no light), 24 h; Potency, µM (highest dose often 57.5 µM), for the others: top-dose activity change, negative = inhibition, most hits filed as inhibitors; hit rate 0.93% among 48,000; AID 1508623; active = well fitted inhibition curve with a large enough effect; inconclusive = small, poorly fitted or top-dose-only effect; inactive = no such curve, though single readings can be large or run the other way; also: nearly all actives have a fitted effect of over 50% in size
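Firefly luciferase signal from promoter-reporter HEK293 cells was scaled between vehicle (0%) and zero RLU (-100%). Compounds were tested at final concentrations of up to 57.5 uM over 24 h at 37 degrees C. PTC124 at 50 uM final served as control inhibitor.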
* marks the source's active call; other numbers are inactive results; ? = inconclusive; . = no result given; [ ] = another dose, or the depositor's remark. Potency is read from the fitted curve at half-maximal effect. Outcome played no part in choosing rows (roughly 2.4% active in at least one column).

entry	Compound	PMP22 txn prim	HTT promoter inh
1	CC(=O)Nc1ccc(NC(=O)CCc2c(C)nc3c(c(C)nn3-c3ccc(C)cc3)c2C)cc1	?	-7%
2	CCc1ccc(Nc2cc(C(=O)NCCCN(C)c3ccccc3)c3ccccc3n2)cc1	-3%	1%
3	Cc1ccc(-c2nnc(SCc3ccccc3C#N)o2)cc1	0%	11%
4	Cc1ccc(CNC(=O)Cn2c(SCC(=O)Nc3ccc(F)cc3)nc3ccccc32)cc1	?	?
5	COc1cccc(NC(=O)C2CCN(c3nnc(C)c4c(C)n(-c5ccccc5)nc34)CC2)c1	-16%	-28%
6	CCCCOc1ccc(S(=O)(=O)N2CCN(c3ccccc3OCC)CC2)cc1	-48%	1%
7	CCOC(=O)c1ccc(NC(=O)Cn2c(=O)cc(C(F)(F)F)c3c(C)nn(C)c32)cc1	-7%	0%
8	COc1ccc(S(=O)(=O)NC(C)(C)CO)cc1-c1nnc2c3ccccc3c(C)nn12	?	-5%
9	CC(CNC(=O)CCn1c(=O)c2cccn2c2ccc(F)cc21)c1ccccc1 (stereo not given)	?	-8%
10	Cc1ccc(Nc2c3c(nc4nc(-c5cccs5)nn24)CCCC3)cc1F	?	-23%
11	CCC1CCCCN1CCCNC(=O)c1ccc2c(c1)N(Cc1ccccc1)C(=O)c1ccccc1S2(=O)=O (stereo not given)	?	-22%
12	CCCN(CCC)CCNC(=O)c1cc2c(-c3ccccc3F)nn(C)c2s1	?	-10%
13	Cc1cc(OCC(=O)NCC2(N(C)C)CCCCC2)cc(C)c1Cl	?	-5%
14	Cc1ccc(S(=O)(=O)N2CC=C(c3c(C)n(CC(=O)N4CCCC4)c4ccccc34)CC2)cc1C	?	?
15	Cn1cc(S(=O)(=O)c2cccc(Cl)c2)c(=O)c2cc(F)c(N3CCN(c4ccccc4)CC3)cc21	?	-2%
16	COc1cccc(-n2c(-c3ccco3)nc3c(cnn3-c3ccccc3C)c2=O)c1	?	?
17	COc1ccc(CCNC(=O)c2ccc3c(c2)N(Cc2ccc(F)cc2)CCS3)cc1OC	?	?
18	CC(C)c1ccc(Nc2cc(C(=O)NCCc3ccccc3)c3ccccc3n2)cc1	-7%	-7%
19	O=C(Cn1ncc2c3ccccc3n(Cc3cccc(Cl)c3)c2c1=O)NCCC1=CCCCC1	-8%	-1%
20	CCC(C(=O)NCCc1cc(OC)ccc1OC)n1nc(C)c2c(C)n(-c3ccccc3)nc2c1=O (stereo not given)	-10%	?
21	CCn1c(=O)cc(OCC(=O)N(C)c2cc(Cl)ccc2C)c2ccccc21	?	-15%
22	Cc1oc2ncn(CC(C)C)c(=O)c2c1C(=O)NCCCN(C)Cc1ccccc1	?	1%
23	O=c1cc(-c2ccccc2)n2c(SCc3ccc(Cl)cc3)nnc2[nH]1	-12%	-13%
24	CN1C(=O)C2(c3ccccc31)N(c1ccccc1)C(=O)CS2(=O)=O (stereo not given)	3%	-16%
25	CCN(CC)c1nc2ccccc2nc1C(=O)Nc1ccc(C(C)=O)cc1	-29%	-29%
26	COC(=O)c1ccccc1NC(=O)N(Cc1ccc(C)cc1)Cc1cccn1-c1nnc(N2CCCC2=O)s1	-5%	-11%
27	O=C(Nc1ccccc1Br)C(Cc1ccccc1)NS(=O)(=O)c1cccc2nsnc12 (stereo not given)	?	-29%
28	COc1ccccc1NC(=O)C1=C(C)Nc2nc(SCc3ccccc3Cl)nn2C1c1ccccn1 (stereo not given)	?	-9%
29	O=C(NCc1ccc(F)cc1)C1CCN(C(=O)c2ccc(-n3ccc4ccccc43)s2)CC1	-41%	?
30	CSc1ccc(CCNC(=O)Cn2c(C)c3cnn(-c4ccccc4)c(=O)c3c2C)cc1	-23%	-6%

Three compounds out of the list, ordered by length of the SMILES, low to high:
entry	Compound	PMP22 txn prim	HTT promoter inh
12	CCCN(CCC)CCNC(=O)c1cc2c(-c3ccccc3F)nn(C)c2s1	?	-10%
30	CSc1ccc(CCNC(=O)Cn2c(C)c3cnn(-c4ccccc4)c(=O)c3c2C)cc1	-23%	-6%
26	COC(=O)c1ccccc1NC(=O)N(Cc1ccc(C)cc1)Cc1cccn1-c1nnc(N2CCCC2=O)s1	-5%	-11%

The list goes on:
entry	Compound	PMP22 txn prim	HTT promoter inh
31	Cc1ccc(C)c(N2CCN(C(c3ccccc3)c3nnc(-c4ccccc4F)o3)CC2)c1 (stereo not given)	-5%	-16%
32	COCCOC(=O)Cn1nnc2sc(-c3ccccc3)cc2c1=O	-11%	-6%
33	Cc1ccc(C)c(N2CCN(C(=O)CCS(=O)(=O)c3cc4c(cc3Cl)NC(=O)CO4)CC2)c1	?	?
34	COc1ccccc1CNC(=O)c1cc2c(s1)-c1ccc(Cl)cc1SC2	-1%	17%
35	CCc1ccc(CNC(=O)CN2C(=O)CSc3ccc(S(=O)(=O)N4CCOCC4)cc32)cc1	6%	1%
36	COc1ccccc1C(=O)OCc1cc(=O)n2c(C)csc2n1	?	59%[activator]
37	CCOC(=O)c1cccc(NC(=O)CSc2nc3cc4ccccc4cc3[nH]2)c1	-73%	-3%
38	CC(C)c1ccc(NC(=O)C2CCN(S(=O)(=O)c3cccc4nsnc34)CC2)cc1	?	-12%
39	CCc1cccc(C)c1NC(=O)C(CC)Sc1nncn2c1cc1occc12 (stereo not given)	?	-24%
40	CCOc1ccc(C(=O)c2cn(CC(=O)Nc3cc(OC)cc(OC)c3)c3ccc(F)cc3c2=O)cc1	?	?
41	CCC(C)NC(=O)c1[nH]c2cc(OC)ccc2c1Sc1ccc(C)cc1 (stereo not given)	?	-31%
42	CC(=O)Nc1nonc1-c1nnc(SCc2ccccc2)n1C	-5%	-13%
43	CC(CCc1ccccc1)NC(=O)CSc1n[nH]c(-c2ccc(F)cc2)n1 (stereo not given)	-14%	?
44	O=C1c2[nH]nc(-c3ccc(F)cc3)c2C(c2ccccc2F)N1c1ccccc1 (stereo not given)	?	?
45	Cc1c(-c2ccc(O)cc2)n(Cc2ccc(OCCN3CCCCCC3)cc2)c2ccc(O)cc12	.	?
46	COc1ccc(-c2nc(CSCC(=O)NCc3ccccc3Cl)c(C)o2)cc1OC	4%	?
47	COc1cc(NC(=O)C2CCN(S(=O)(=O)c3c(C)noc3/C=C/c3ccccc3F)CC2)cc(OC)c1OC	?	?
48	CC(=O)Nc1ccc(/C=C/c2noc(-c3ccccc3O)n2)cc1	-6%	6%
49	CC(C)CN(CCCNC(=O)Cn1ncc2c3ccccc3n(C)c2c1=O)CC(C)C	-19%	-2%
50	Cc1ccc(C)c(NC(=O)Cn2c(=O)n(CCC(C)C)c(=O)c3cccnc32)c1	-14%	-15%
51	COc1ccc(-c2oc3ncn4nc(COc5cccc(C)c5C)nc4c3c2-c2ccc(OC)cc2)cc1	-8%	2%
52	CC(=O)c1sc2c(c1C)c(=O)n(-c1ccc(Cl)cc1)c(=O)n2Cc1ccc(Cl)cc1	-18%	-28%
53	Cc1ccc(OCC(=O)N(Cc2ccco2)Cc2ccco2)cc1C	?	?
54	CCN(CC)S(=O)(=O)c1ccc(NC(=O)NCc2noc3ccc(C)cc23)cc1	9%	?
55	COc1ccc(Cc2nc3ccc(C(=O)NCc4ccc(OC)cc4OC)cc3o2)cc1	?	?
56	Cc1cccc2c1-c1sc(C(=O)N3CCN(c4cccc(Cl)c4)CC3)cc1CO2	-2%	-13%
57	CCC(O)c1cc2c(cc1NC(=O)c1ccccc1F)OCCO2 (stereo not given)	8%	-4%
58	CCCCC(CC)CNC(=O)c1ccc2c(=O)n(Cc3ccc(OC)cc3)c(=O)[nH]c2c1 (stereo not given)	12µM*	-2%
59	Cc1ccc(CS(=O)(=O)c2ncc(Cl)c(C(=O)Nc3nnc(C(C)C)s3)n2)cc1	8.9µM*	?
60	CCOC(=O)c1ccccc1NC(=O)CCc1c(C)nc2c(c1C)c(=O)n(C)c(=O)n2C	8%	-3%
61	O=S(=O)(c1ccc2nc(N3CCN(c4ccccc4)CC3)ccc2c1)N1CCCCC1	0%	-17%
62	COc1ccccc1CCNC(=O)c1ccc(-c2nc(CSc3ccc(C)cc3)c(C)o2)cc1	?	?
63	COc1ccc2c(c1)c1c(c(=O)n(-c3cccc(Cl)c3)c(=O)n1C)n2C	-25%	-5%
64	CCOc1ccc(CNC(=O)c2ccc3c(c2)nnn3C2CCCC2)cc1	0%	-5%
65	CCCCCCCCCCCC(=O)[O][Sn]([CH2]CCC)([CH2]CCC)[O]C(=O)CCCCCCCCCCC	.	11%
66	COc1ccc(S(=O)(=O)c2cc(NS(=O)(=O)c3ccc(Cl)cc3)c(C)c(C)c2O)cc1	5%	-26%
67	CCOCCCN(Cc1ccco1)C(=O)c1cc2c(=O)[nH]c3ccc(C)cc3c2s1	?	?
68	CCN(CC)c1ccc(-c2nc(-c3ccncc3)no2)cc1[N+](=O)[O-]	-34%	12%
69	Cc1ccc2c(c1)c1c(c(=O)n(-c3ccccc3C)c(=O)n1CC(=O)NCCC1=CCCCC1)n2C	?	-8%
70	Cc1ccc(CN2C(=O)N(c3ccccc3)C(=O)C2CC(=O)Nc2ccccc2)cc1 (stereo not given)	3%	-18%
71	COc1cccc(-c2nnc(SCC(=O)N(C)C3CCCCC3)o2)c1	11%	8%
72	Cc1ccc(Nc2nnc(-c3ccc(C)c(S(=O)(=O)N4CCOCC4)c3)c3ccccc23)cc1	?	-18%[11.5 µM]
73	CCOC(=O)N1CCc2c(sc3c2c(=O)n(Cc2ccccc2)c(=O)n3CC(=O)Nc2cccc(C)c2)C1	3%	-6%
74	CCCCOC(=O)c1ccc(NC(=O)CSc2nc3c(c(=O)[nH]2)CCCC3)cc1	?	-16%
75	Cc1cccc(NC(=O)CSc2nc3ccccc3c3nc(CCn4cncc4C)nn23)c1	?	-3%
76	CCCNC(=O)CSc1c2c(nc3ccc(Cl)cc13)CCCC2	?	-10%
77	COc1ccc(C2NC(=O)N(C)C3=C2C(=O)N(c2cccc(Cl)c2)C3)cc1 (stereo not given)	25%	-15%
78	COC(=O)c1ccccc1NC(=O)C1=C(C)C(=O)OC12CCC(C)CC2 (stereo not given)	-25%	-18%
79	Cc1ccc(CSc2oc(-c3ccco3)nc2S(=O)(=O)c2ccc(Br)cc2)cc1	?	-15%
80	Cc1cc(C)c2c(=O)cc(C(=O)NCCc3ccc(S(N)(=O)=O)cc3)oc2c1	2%	-8%
81	Cc1ccc(Cl)cc1N1CCN(S(=O)(=O)c2ccc3c(c2)C(C(C)C)C(=O)N3)CC1 (stereo not given)	-12%	?
82	O=c1cc(CN2CCN(S(=O)(=O)c3ccccc3)CC2)nc2sc(-c3ccccc3Cl)nn12	?	-7%
83	Cc1cccc(C)c1Nc1c(-c2ccsc2)nc2ccc(Cl)cn12	-13%	-10%
84	COC(=O)c1cc2sccc2n1Cc1nc(-c2cccc(Cl)c2)oc1C	15%	-6%
85	Cc1cccc(NC(=O)CSc2cn(CC(=O)N3CCOCC3)c3ccccc23)c1C	1%	3%
86	CN1C(=O)Cc2cc(S(=O)(=O)NCc3ccc(Cl)cc3)ccc21	-8%	-20%
87	CN(C)CCN(Cc1ccco1)S(=O)(=O)c1cc2c(cc1Cl)NC(=O)CO2	-3%	8%
88	COc1cccc(NC(=O)Cn2c(=O)n(-c3ccc(C)cc3)c(=O)c3ccc(C(=O)NCc4ccco4)cc32)c1	-12%	?
89	O=C1CN(C(=O)c2ccccc2C(F)(F)F)C(c2ccccc2)c2cc(F)ccc2N1 (stereo not given)	-10%	-31%
90	CCCCNC(=O)c1cccc(NC(=O)c2nsc3ccccc23)c1	-2%	22%

Following part
entry	Compound	PMP22 txn prim	HTT promoter inh
91	N#Cc1ccccc1Cn1nnc2c(=O)[nH]c(C3CCCN(S(=O)(=O)c4ccc(F)cc4)C3)nc21 (stereo not given)	?	-13%
92	Cc1cc(C)cc(OC(C)C(=O)Nc2c(C(=O)c3ccccc3)oc3ccccc23)c1 (stereo not given)	1%	0%
93	COc1ccc(N2CC(NC(=O)/C=C\c3ccc(OC)c(OC)c3)CC2=O)cc1 (stereo not given)	18%	1%
94	OCc1cccnc1	.	-4%
95	CCc1ccc(S(=O)(=O)c2cnc3ccc(OC)cc3c2N2CCCC(C)C2)cc1 (stereo not given)	?	?
96	CCn1cc(C(=O)N2CCN(c3cc(Cl)ccc3C)CC2)c(=O)c2cc(S(=O)(=O)N3CCCCC3)ccc21	?	-26%[11.5 µM]
97	COc1ccc(-c2nnc(SCC(=O)NCCc3ccccc3)nc2-c2ccc(OC)cc2)cc1	-4%	9%
98	CCCN(C(=O)c1cc2c(=O)oc3ccc(C)cc3c2s1)c1ccc(OCC)cc1	2%	-12%
99	COc1ccc(NC(=O)C2CCC(CNS(=O)(=O)c3ccc(Br)s3)CC2)c(OC)c1 (stereo not given)	-9%	-13%

Compound profiles, from the list above:
Cc1cc(OCC(=O)NCC2(N(C)C)CCCCC2)cc(C)c1Cl across the screens: PMP22 txn prim = ?; HTT promoter inh = -5%
COc1ccc(C2NC(=O)N(C)C3=C2C(=O)N(c2cccc(Cl)c2)C3)cc1 (stereo not given) across the screens: PMP22 txn prim = 25%; HTT promoter inh = -15%
